# High-throughput results: PubChem BioAssay, several laboratories
# rRNA inh HTS: selective bacterial rRNA inhibition in E. coli; E. coli WT GFP vs humanized-ribosome RFP mutants, fluorescence, 24 h; stronger effect = lower value; DMSO median 0, no signal -100; GFP signal change (wild-type ribosome), % (concentration not given with the values); hit rate 1.6% among 350,000; AID 720706;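 active means significant combined selectivity score with lowered wild-type GFP, culture density cut under 30%, mutant RFP and density less affected; inactive means any of these conditions unmet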; further: one replicate is shown; some compounds called inactive have numbers as strong as hits
# T cruzi repl: blocks replication of Trypanosoma cruzi. T. cruzi beta-gal in NIH3T3, luminescence, 90 h. hit rate 1.4% among 300,000. inhibition, % (test concentration not listed);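 active means mean inhibition across valid replicates above about 55%, limit read from the data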;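 further: signal also drops with host cell toxicity which is not excluded here; 0% = plate median of DMSO wells and 100% = zero luminescence signal; higher percent means less beta-gal luminescence so fewer parasites; stock transfer was 50 nL into about 50 µL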
# Beta apoptosis: beta cell apoptosis inhibition; INS-1E cytokine-induced death, ATP luminescence, 48 h; percent of positive-control rescue, neutral wells zero; protection from apoptosis, % (concentration not given with the values); hit rate 0.8% among 300,000; AID 435005;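 active means all replicates at 75% or more, or half of them and the mean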;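 further: 0% = cytokine-treated negative control wells and 100% = positive control rescue; higher means more ATP so stronger rescue from cytokine killing; wells of about 40 µL received 100 nL stock; the first replicate is given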
# FGF22 binding: FGF22 (human) thermal shift binding; recombinant FGF22 thermal shift, SYPRO orange fluorescence; percent of sucrose octasulfate shift, DMSO zero; hit rate 1.5% among 340,000; AID 651658; Q9HCT0; calls only at 9.99 µM;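 active means melting point raised past a set limit in the mean and every replicate; three in four hits are not shown here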
# Target sequence (Q9HCT0 whole entry, looked up): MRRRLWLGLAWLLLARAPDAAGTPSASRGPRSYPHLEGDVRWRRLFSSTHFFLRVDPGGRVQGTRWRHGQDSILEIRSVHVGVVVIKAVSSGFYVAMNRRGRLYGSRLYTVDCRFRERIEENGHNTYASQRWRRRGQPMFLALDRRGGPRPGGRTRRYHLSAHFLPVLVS
# UCH37 DUB inh: blocks the human deubiquitinase UCH37. Q9Y5K5. purified proteasome/UCH37, Ub-AMC cleavage fluorescence. inhibition, % (concentration not given with the values). hit rate 0.33% among 330,000;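 active means mean of two replicates above 20%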;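 further: 0% = compound-free wells with enzyme and 100% = wells lacking proteasome; stock transfer was 100 nL into about 20 µL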
# Target sequence (Q9Y5K5 whole entry, looked up): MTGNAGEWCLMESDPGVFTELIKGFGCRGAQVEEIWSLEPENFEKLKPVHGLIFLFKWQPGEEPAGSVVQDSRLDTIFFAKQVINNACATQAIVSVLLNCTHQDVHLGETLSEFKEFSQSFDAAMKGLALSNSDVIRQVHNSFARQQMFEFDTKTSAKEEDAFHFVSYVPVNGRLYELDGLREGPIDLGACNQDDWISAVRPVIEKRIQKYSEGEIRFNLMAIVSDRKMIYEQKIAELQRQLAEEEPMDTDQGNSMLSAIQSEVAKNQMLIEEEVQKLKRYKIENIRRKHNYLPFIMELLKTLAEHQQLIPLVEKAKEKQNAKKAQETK
#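 assay system = human UCH37 enzyme supplied as purified proteasome complex | amount = proteasome at 0.15 nM in the dispensed enzyme solution | schedule = 30 min compound-proteasome preincubation then 25 min substrate reaction, room temperature | measured by = fluorescence, ex 355 nm, em 460 nm | benchmarks = no-proteasome wells (full inhibition) and compound-free wells (no inhibition)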
# A1 inh: inhibitors of the anti-apoptotic protein A1, read as caspase activation; MEF A1-2A-BIM cells, Caspase-Glo 3/7 luminescence, 3 h; percent of clofoctol response, vehicle zero; caspase activation, % (no concentration beside the values); hit rate 0.066% among 330,000; AID 2462;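 active means over half of replicate activation scores above 10%, or exactly half above 10 with the replicate mean above 10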;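 further: wells of about 30 µL received 50 nL stock; many hits fall short of the cut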
# E coli growth: blocks Escherichia coli growth; OD600, 23 h; stronger effect = lower value; OD600 absorbance (no concentration beside the values); hit rate 0.21% among 330,000;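 active means OD600 absorbance below the run mean of sample wells minus 3.6 SD, in any replicate, cut at about 0.56 in these data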;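 further: stock transfer was 300 nL into about 60 µL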
# AF4-AF9 inh: MLL-AF4/AF9 protein interaction inhibition | inhibition, % at 10 µM | AlphaScreen, biotin-AF4 peptide binding to FLAG-AF9 | hit rate 0.47% among 350,000;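 active means every replicate reaching a set inhibition limit, whatever the replicate mean, cut at about 25% in these data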;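 further: 0% = plate neutral control median and 100% = total signal loss; the record names both 10 and 1 µM as test concentration; the first replicate is given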
# rRNA inh HTS OD600: second read-out of rRNA inh HTS, no call of its own (marks repeat the call); OD600 change, %; measured here: OD600 growth;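 optical density of the mix in the first replicate; 0 = DMSO median and -100 = no signal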
# rRNA inh HTS RFP: second read-out of rRNA inh HTS, no call of its own (marks repeat the call); RFP signal change, %; measured here: RFP humanized mutant strains;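 first replicate; 0 = DMSO median and -100 = no signal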
# Starred values were filed as active, the others as inactive; i = inactive; / = no result given. An excerpt. The share of hits here may be higher or lower than overall.
SMILES,rRNA inh HTS,rRNA inh HTS OD600,rRNA inh HTS RFP,T cruzi repl,Beta apoptosis,FGF22 binding,UCH37 DUB inh,A1 inh,E coli growth,AF4-AF9 inh
CC(C)c1nc2sc3c(SCC(=O)NCc4ccco4)ncnc3c2c2c1CCC2,/,/,/,18.9,-3.7,/,-3.2,0.4,0.723,/
O=C(CCNC(=O)c1ccccc1Cl)Nc1ccncc1,9.8,9.5,-1.8,-16.0,/,i,2.0,0.4,0.694,-0.3
Cc1cc2c(cc(C(=O)NCc3cccnc3)n2Cc2ccc(Cl)cc2)o1,/,/,/,16.4,-1.0,/,1.5,1.2,0.662,/
CCOCCCNC(=O)CN(Cc1ccc(Cl)cc1)S(C)(=O)=O,/,/,/,-4.3,-5.5,/,1.6,0.8,0.686,/
Cc1ccc(C)c(N=Cc2cc3c(cc2[N+](=O)[O-])OCO3)c1,1.5,16.6,0.0,-4.5,-1.4,i,-0.3,-0.4,0.728,8.4
CCC1Oc2ccccc2N(CC(=O)NCCCN2CCN(c3ccc(OC)cc3)CC2)C1=O (centres undefined),12.6,16.4,12.5,3.6,1.6,i,3.5,-0.1,0.662,13.2
COC(=O)c1ccc(CSc2nc3ccccc3c(=O)n2C)o1,1.7,2.0,1.7,-0.2,-2.8,i,2.4,-1.0,0.668,1.9
CCOC(=O)c1ccc(NC(=O)NS(=O)(=O)c2ccc(C)cc2)cc1,/,/,/,-8.5,4.8,/,1.9,-0.8,0.829,/
Cc1nc2cc(NC(=O)NCc3ccc4c(c3)OCO4)ccc2o1,/,/,/,17.3,-2.9,/,-1.1,-0.6,0.683,/
S=C(NCCCN1CCOCC1)N1CCN(c2cccc(Cl)c2)CC1,-2.5,-7.1,0.1,1.6,0.1,i,2.0,1.0,0.616,6.9
O=C(NCC1COCCO1)C1CCN(S(=O)(=O)c2ccccc2)CC1 (centres undefined),/,/,/,-4.0,/,/,-0.1,0.4,0.67,/
O=C(COC(=O)c1ccc(Cl)c(S(=O)(=O)N2CCCCC2)c1)NCCc1ccccc1,-16.5,-26.2,0.8,/,/,i,0.5,/,0.655,-1.4
COC(=O)Nc1ccc(S(=O)(=O)Nc2cc(OC)nc(OC)n2)cc1,/,/,/,-2.6,0.9,i,-0.4,0.5,0.722,-2.4
C/C(=N/NC(=O)CNC(=O)c1cccnc1)c1ccc(Cl)cc1,5.5,11.2,2.6,10.4,-0.3,i,/,0.8,/,-1.7
O=C(COc1nc2ccccc2nc1N1CCOCC1)NC1CCCCC1,3.1,11.0,0.8,-5.6,-2.0,i,-114.8,-0.2,0.715,-1.5
Cn1c(=O)c2c(nc(/C=C/c3cccc(Cl)c3)n2C)n(C)c1=O,/,/,/,7.4,1.7,i,-17.7,0.4,/,-2.2
O=C(CSc1ccc(Br)cc1)NCC(c1ccco1)N1CCCCC1 (centres undefined),0.1,-6.3,0.1,-1.2,-1.0,/,0.9,-0.3,0.643,-4.8
CC(C)[C@H](NC(=O)c1ccc(Cl)c([N+](=O)[O-])c1)C(=O)NCc1ccc(F)cc1,/,/,/,-7.5,-8.9,/,3.1,0.7,0.682,/
O=C(NCc1ccc(F)cc1)c1cc(C(=O)C2CC2)c[nH]1,1.5,12.3,-2.0,-1.0,3.8,i,5.6,-0.3,0.739,-3.6
CCCOC(=O)c1ccc(NC(=O)c2ccc(Br)o2)cc1,-1.4,-5.6,-2.2,-4.8,-2.4,i,4.2,-3.2,0.699,-0.1
Nc1c(C(=O)NCc2cccnc2)sc(=S)n1-c1ccccc1,/,/,/,9.6,-0.4,/,9.7,-0.2,0.663,/
NC(=O)C1CCN(c2ccc3c(c2)S(=O)(=O)c2ccccc2C3=O)CC1,1.0,4.2,-4.3,2.5,-1.3,i,2.0,0.2,0.71,-80.5
CCOC(=O)CC1C(=O)NCCN1C(=O)c1ccc(C)cc1 (centres undefined),12.4,5.5,4.1,-9.5,0.8,i,3.8,0.3,0.639,1.2
N#Cc1ccc(C(=O)Nc2cc(C3CC3)nn2-c2ccccc2)cc1,-4.4,0.7,-0.9,-5.3,-0.7,i,1.3,-0.5,0.686,/
Oc1cc(Cc2ccccc2)cnc1CN1CCOCC1,/,/,/,-6.6,-3.0,/,2.2,-0.8,0.749,/

# Three entries picked at random from those above:
SMILES,rRNA inh HTS,rRNA inh HTS OD600,rRNA inh HTS RFP,T cruzi repl,Beta apoptosis,FGF22 binding,UCH37 DUB inh,A1 inh,E coli growth,AF4-AF9 inh
S=C(NCCCN1CCOCC1)N1CCN(c2cccc(Cl)c2)CC1,-2.5,-7.1,0.1,1.6,0.1,i,2.0,1.0,0.616,6.9
Cc1ccc(C)c(N=Cc2cc3c(cc2[N+](=O)[O-])OCO3)c1,1.5,16.6,0.0,-4.5,-1.4,i,-0.3,-0.4,0.728,8.4
COC(=O)c1ccc(CSc2nc3ccccc3c(=O)n2C)o1,1.7,2.0,1.7,-0.2,-2.8,i,2.4,-1.0,0.668,1.9

# A different layout for some results above:
Molecule: O=C(NCC1COCCO1)C1CCN(S(=O)(=O)c2ccccc2)CC1 (centres undefined)
  rRNA inh HTS: /
  rRNA inh HTS OD600: /
  rRNA inh HTS RFP: /
  T cruzi repl: -4.0
  Beta apoptosis: /
  FGF22 binding: /
  UCH37 DUB inh: -0.1
  A1 inh: 0.4
  E coli growth: 0.67
  AF4-AF9 inh: /
Molecule: O=C(COC(=O)c1ccc(Cl)c(S(=O)(=O)N2CCCCC2)c1)NCCc1ccccc1
  rRNA inh HTS: -16.5
  rRNA inh HTS OD600: -26.2
  rRNA inh HTS RFP: 0.8
  T cruzi repl: /
  Beta apoptosis: /
  FGF22 binding: i
  UCH37 DUB inh: 0.5
  A1 inh: /
  E coli growth: 0.655
  AF4-AF9 inh: -1.4

# The listing continues:
SMILES,rRNA inh HTS,rRNA inh HTS OD600,rRNA inh HTS RFP,T cruzi repl,Beta apoptosis,FGF22 binding,UCH37 DUB inh,A1 inh,E coli growth,AF4-AF9 inh
Cc1cc(-c2cc(C(=O)NCc3ccccc3)on2)nc(S(C)(=O)=O)n1,1.4,-2.6,-0.4,-21.3,-8.8,i,1.2,-0.1,0.666,-0.4
CCOC(=O)c1c(C)[nH]c(C(=O)OCC(=O)c2ccc(OC)cc2OC)c1C,4.6,6.0,-1.1,-13.0,8.2,i,0.8,0.6,0.65,-0.4
COc1ccc(Cl)cc1NC(=O)Nc1cc(C)on1,5.9,1.5,-2.2,12.8,-5.9,i,4.0,-0.6,0.705,-0.5
CC(C)[C@H](NC(=O)c1ccccc1)C(=O)OCC(=O)c1ccc(S(=O)(=O)N2CCCCC2)cc1,5.2,-1.7,2.0,-12.9,-5.4,i,/,0.5,/,-4.2
Cc1cc2c(o1)CC(C)(C)CC2=O,25.3,16.8,4.1,-5.1,-0.9,i,1.7,0.6,0.659,-0.6
O=C(NS(=O)(=O)Nc1ccc(Br)cn1)c1c[nH]c2ccccc12,17.0,12.2,2.4,-19.0,-4.4,/,3.4,-1.0,0.731,0.3
CC(NC(=O)CN1CCN(c2ncccn2)CC1)c1ccc(F)cc1 (centres undefined),/,/,/,-9.3,-0.7,/,0.2,0.0,0.715,/
CCCn1c(SCC(=O)c2ccc(CC)cc2)n[nH]c1=O,/,/,/,7.1,-3.8,/,-1.6,0.1,0.684,/
CCCNC(=S)Nc1ccc(F)cc1F,11.1,6.2,-0.1,-28.2,-0.8,i,3.3,-0.6,0.683,0.8
Cn1cccc1C(=O)NCCc1ccccc1,8.6,5.5,-3.6,5.1,1.5,i,-2.1,-7.3,0.63,0.9
COc1ccc2[nH]cc(CCNC(=O)COc3ccc4ccc(=O)oc4c3)c2c1,/,/,/,-9.4,/,i,1.1,0.3,0.689,0.4
CC(Sc1nnc(-c2ccccc2F)n1C1CC1)C(=O)NCc1ccco1 (centres undefined),2.5,6.0,-1.4,/,-2.8,i,0.0,0.1,0.651,-9.1
O=C(c1cccc(F)c1)N1CCCN(C(=O)c2cccc(F)c2)CC1,/,/,/,3.7,0.2,/,-0.9,1.0,0.654,/
CN(CCC(=O)Nc1cc(S(=O)(=O)N(C)C)ccc1Cl)CC(=O)Nc1ccc(F)cc1,-1.1,0.0,3.1,15.3,-4.7,i,3.6,0.7,0.703,-2.2
Nc1ccccc1Nc1cccc(C(F)(F)F)c1,2.8,0.4,1.3,-38.2,71.7,i,3.3,0.0,0.697,1.6
COc1ccc(NC(=O)Cc2nnc(SCC(=O)Nc3ccc(F)cc3)n2C)cc1,1.8,5.5,0.8,-4.1,4.2,i,4.9,-0.5,0.678,1.9
CC1CN(c2ccc(C(F)(F)F)cc2[N+](=O)[O-])CCN1S(C)(=O)=O (centres undefined),/,/,/,8.4,-3.2,/,-0.3,1.2,0.691,/
COc1ccc(C2C(C#N)=C(N)OC3=C2C(=O)CCC3)cc1Cn1cc([N+](=O)[O-])cn1 (centres undefined),12.2,14.8,0.1,-2.5,-2.8,/,1.5,1.7,0.674,0.7
O=C(Nc1ccc(Cl)cc1C(=O)N1CCCC1)c1cccc([N+](=O)[O-])c1,3.4,3.7,5.1,2.4,-10.4,i,2.5,0.6,0.74,-2.3
COc1ccc(C2C3C(C)=NN=C3CC(C)(O)C2C(C)=O)cc1 (centres undefined),/,/,/,-6.2,8.1,/,2.1,-0.4,/,1.3
O=C1NC[C@H](c2ccccc2)OC(=O)[C@@H](Cc2ccc(F)cc2)C/C=C\C[C@H]1CC(=O)N(CCO)Cc1ccccc1,-13.2,-18.5,11.4,/,7.8,i,4.2,0.5,/,-10.3
CCc1cc[n+](-c2nc3ccccc3nc2[N-]S(=O)(=O)c2ccc(Br)s2)cc1,/,/,/,-9.1,-7.7,/,3.3,0.0,0.662,/
O=S(=O)(Nc1ccccc1N1CCOCC1)c1ccc(Cl)cc1,-15.0,-11.6,1.9,/,2.2,/,5.0,0.7,0.703,/
O=C(CCN1C(=O)S/C(=C/c2ccc(Cl)cc2)C1=O)N1CCOCC1,/,/,/,3.2,-7.1,/,-7.4,0.3,0.674,/
CCOc1ccc(NC(=O)CN(C)C(=O)C2CCN(c3ncnc4sc(C)c(C)c34)CC2)cc1OCC,-29.6,-29.9,-1.4,5.9,-2.4,i,1.4,0.0,0.725,8.9
CC(OC(=O)c1cc2sccc2n1C)C(=O)NC(C)(C)C (centres undefined),-4.2,-13.8,1.5,-3.2,-4.3,/,3.6,-1.7,0.633,0.5
O=C(Nc1ccc(OC(F)(F)F)cc1)C1CCCN(S(=O)(=O)c2cccnc2)C1 (centres undefined),/,/,/,2.0,-2.7,/,2.0,-0.4,0.702,/
